Vif A3G = inhibitors of Vif binding to APOBEC3G peptide, primary screen, biochemical, TR-FRET, GST-Vif 1-94, biotin-A3G peptide, dose response retest (AID 1117319). Virion infectivity factor (Human immunodeficiency virus type 1 group M subtype B (isolate …. TR-FRET GST-Vif / biotin-A3G peptide binding; higher % means a stronger effect; test concentration not given here; strong numbers were not always called active. inhibition, %; hits with a dose series show IC50 in µM. hit rate 0.57% among 260,000;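 active = above the screen mean plus three standard deviations and confirmed in dose response; inconclusive = results disagree or hit not tested in dose response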;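 note: Vif residues 1-94 fused to GST binding biotinylated APOBEC3G peptide 110-148; 0% = full assay without inhibitor and 100% = GST in place of GST-Vif; retest series ran down from 100 µM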
UCH37 inh = inhibitors of human UCH37 deubiquitinase, primary screen, biochemical, Ub-AMC cleavage, fluorescence | hit rate 0.33% among 330,000 | purified proteasome/UCH37 | Ubiquitin carboxyl-terminal hydrolase isozyme L5 (Homo sapiens), Q9Y5K5 | inhibition, % (test concentration not listed);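 active = mean of two replicates above 20%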;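 note: 0% = compound-free wells with enzyme and 100% = wells lacking proteasome; stock transfer was 100 nL into about 20 µL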
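Test system – human UCH37 enzyme supplied as purified proteasome complex · Incubation – 30 min preincubation with enzyme, 25 min cleavage at room temperature · Detection – AMC fluorescence from Ub-AMC cleavage, excitation 355 nm, emission 460 nm · Benchmarks – no-proteasome wells (full inhibition) and compound-free wells (no inhibition)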
RanGTP-Impb inh = inhibitors of RanGTP-importin-beta interaction, primary screen, biochemical, FRET, CFP-Ran, YFP-importin-beta, homogeneous; hit rate 1.1% among 300,000; cell-free CFP-Ran/YFP-importin-beta FRET ratio; Ran GTPase (GTP-bound) - importin-beta complex; inhibition, % (no concentration beside the values); AID 2216, 2009;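 active = most replicates above 15%; inconclusive = exactly half above 15%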;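 note: 0% = DMSO wells and 100% = Ran loaded with GDP instead of GTP; wells of about 40 µL received 100 nL stock; the first replicate is given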
Ecoli growth = E. coli growth inhibition, primary screen, OD600 | Escherichia coli growth, 23 h; active compounds read low | hit rate 0.21% among 330,000 | AID 1053175, 2014 | OD600 absorbance (concentration not given with the values);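 active = OD600 absorbance below the run mean of sample wells minus 3.6 SD, in any replicate, cut at about 0.56 in these data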;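 note: stock transfer was 300 nL into about 60 µL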
HNF4A DNA FP = change in binding of human HNF4A to DNA, primary screen, biochemical, fluorescence polarization, FITC-DNA; 1 h; activity change, % at 10 µM; hit rate 0.3% among 360,000; Hepatocyte nuclear factor 4-alpha (Homo sapiens), P41235; in the data active = activity change above about 30%, passing the limit was not always enough;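 note: controls were the assay level and a saturating level of protein; the project sought stronger binding though the title names inhibitors; some compounds called inactive have numbers as strong as hits; positive values seem to mean higher polarization but the record does not say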
Target sequence (P41235 whole entry, looked up): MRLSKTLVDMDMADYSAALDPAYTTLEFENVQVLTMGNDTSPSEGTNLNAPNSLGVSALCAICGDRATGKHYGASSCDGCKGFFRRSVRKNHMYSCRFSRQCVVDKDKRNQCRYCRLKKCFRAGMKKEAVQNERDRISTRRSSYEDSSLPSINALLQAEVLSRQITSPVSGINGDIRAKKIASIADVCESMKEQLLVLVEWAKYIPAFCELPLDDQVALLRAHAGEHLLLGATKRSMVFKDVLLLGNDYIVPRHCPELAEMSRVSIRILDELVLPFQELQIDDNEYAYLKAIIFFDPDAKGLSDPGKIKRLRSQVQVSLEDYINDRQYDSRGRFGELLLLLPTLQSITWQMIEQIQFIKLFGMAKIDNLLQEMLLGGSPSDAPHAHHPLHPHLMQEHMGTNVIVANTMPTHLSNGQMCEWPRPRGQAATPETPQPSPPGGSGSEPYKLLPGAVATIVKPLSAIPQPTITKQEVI
FGF22 binding = binders of human FGF22 protein, primary screen, FGF22 synaptogenesis inhibitor project, biophysical, thermal shift, single point | AID 651658, 2012 | recombinant FGF22 thermal shift, SYPRO orange fluorescence; percent of sucrose octasulfate shift, DMSO zero | calls only at 9.99 µM | hit rate 1.5% among 340,000 | Fibroblast growth factor 22 (Homo sapiens), Q9HCT0;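 active = melting point raised past a set limit in the mean and every replicate; inconclusive = no clear call; three in four hits are not shown here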
MLL AF4-AF9 inh = inhibitors of AF4 peptide binding to AF9, primary screen, biochemical, AlphaScreen, biotin-AF4 peptide, FLAG-AF9, single point | Protein AF-9 (Homo sapiens), P42568 | inhibition, % at 10 µM | hit rate 0.47% among 350,000 | AID 651704, 2012;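 active = every replicate reaching a set inhibition limit, whatever the replicate mean, cut at about 25% in these data; inconclusive = mean inhibition reaches that limit but some replicates miss it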;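 note: 0% = plate neutral control median and 100% = total signal loss; the record names both 10 and 1 µM as test concentration; the first replicate is given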
Target sequence (P42568 whole entry, looked up): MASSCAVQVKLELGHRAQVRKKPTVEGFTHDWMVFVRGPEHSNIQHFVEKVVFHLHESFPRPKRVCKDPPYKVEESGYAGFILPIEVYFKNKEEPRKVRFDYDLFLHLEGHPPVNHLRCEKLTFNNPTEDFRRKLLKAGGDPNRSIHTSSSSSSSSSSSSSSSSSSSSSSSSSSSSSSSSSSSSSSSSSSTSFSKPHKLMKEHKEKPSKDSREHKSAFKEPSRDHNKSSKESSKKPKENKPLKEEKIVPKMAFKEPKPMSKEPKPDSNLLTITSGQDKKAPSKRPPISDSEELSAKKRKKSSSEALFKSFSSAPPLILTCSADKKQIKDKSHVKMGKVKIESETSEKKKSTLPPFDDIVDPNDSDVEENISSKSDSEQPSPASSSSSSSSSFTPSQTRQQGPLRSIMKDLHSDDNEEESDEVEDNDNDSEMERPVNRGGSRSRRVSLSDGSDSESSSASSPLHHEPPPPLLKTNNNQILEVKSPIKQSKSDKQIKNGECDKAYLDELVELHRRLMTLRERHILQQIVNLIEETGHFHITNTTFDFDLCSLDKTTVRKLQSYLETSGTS
Numbers without * were called inactive; & = joins results of further samples. Only part of the results is shown; the hit share may differ from the screen's.

Results for Cc1nc2sc(-c3ccccc3)cc2c(=O)n1-n1cccc1 ?
Vif A3G: 0.8%; UCH37 inh: 2.1; RanGTP-Impb inh: 0.3; Ecoli growth: 0.701; HNF4A DNA FP: -2.5

What do the screens show for `Cc1ccc(NC(=O)c2ccc(Cn3cc(Cl)cn3)o2)c(C)c1`?
Vif A3G: -1.1%; RanGTP-Impb inh: 2.2; HNF4A DNA FP: -9.6; FGF22 binding: inactive; MLL AF4-AF9 inh: -0.1

How did Fc1cc(F)cc(NC(=S)NN2CCOCC2)c1 do in these assays?
Vif A3G: -1.9%; UCH37 inh: -1.5; RanGTP-Impb inh: 0.5; Ecoli growth: 0.714; HNF4A DNA FP: -2.6; FGF22 binding: inactive; MLL AF4-AF9 inh: -0.2

What do the screens show for `COc1cc(C(=S)N2CCCCC2)ccc1OCC(=O)N1CCCC1`?
Vif A3G: -3.9%; UCH37 inh: 1.1; RanGTP-Impb inh: 3.7; Ecoli growth: 0.67; HNF4A DNA FP: -0.4

What do the screens show for `O=C(Nc1ccccc1)C1CCCN1S(=O)(=O)c1ccc(Br)cc1` (stereo unspecified)?
UCH37 inh: 0.7; RanGTP-Impb inh: 2.1; Ecoli growth: 0.659; HNF4A DNA FP: 0.4; FGF22 binding: inactive; MLL AF4-AF9 inh: -4.6

Results for c1ccc(N2CCN(Cc3ccsc3)CC2)nc1 ?
Vif A3G: 1.5%; UCH37 inh: 1.5; RanGTP-Impb inh: 2.3; Ecoli growth: 0.696; HNF4A DNA FP: 4.3

How did Cc1ccc(-n2ncc3c2CC(C)(C)CC3NC(=O)CCN2CCCO2)cc1 (stereo unspecified) do in these assays?
UCH37 inh: 1.6; RanGTP-Impb inh: 3.6; Ecoli growth: 0.649; HNF4A DNA FP: 2.4; FGF22 binding: inactive; MLL AF4-AF9 inh: 1.1

What do the screens show for `Cc1ccc(C)c2nc3sc(C(=O)N4CCCc5ccccc54)c(N)c3cc12`?
Vif A3G: -1.9%; UCH37 inh: 6.1; RanGTP-Impb inh: -16.8; Ecoli growth: 0.754; HNF4A DNA FP: 55.8*

Results for COc1ccc(N2CCN(C(=O)Cc3ccc(OC)c(OC)c3)CC2)cc1 ?
UCH37 inh: 2.2; RanGTP-Impb inh: -3.0; Ecoli growth: 0.661; HNF4A DNA FP: -0.4; FGF22 binding: inactive; MLL AF4-AF9 inh: -0.1

Results for O=C1c2ccccc2-c2onc3ccc(NCc4ccco4)c1c23 ?
Vif A3G: -13.5%; UCH37 inh: 1.1; RanGTP-Impb inh: -277.7; Ecoli growth: 0.694; HNF4A DNA FP: -42.5

What do the screens show for `CC(C)CC(c1nnnn1CC1CCCO1)N1CCN(C2CCCC2)CC1` (stereo unspecified)?
Vif A3G: 5.7%&12.8%; UCH37 inh: 2.3; RanGTP-Impb inh: -0.8; Ecoli growth: 0.711; HNF4A DNA FP: 0.5

Results for COc1ccc(CCNC(=O)C2CCN(S(=O)(=O)c3cccs3)CC2)cc1OC ?
Vif A3G: 6.8%; UCH37 inh: 3.4; RanGTP-Impb inh: -2.3; Ecoli growth: 0.665; HNF4A DNA FP: 2.7; FGF22 binding: inactive; MLL AF4-AF9 inh: -11.9

Two records picked at random from the list so far:
Results for Cc1nc2sc(-c3ccccc3)cc2c(=O)n1-n1cccc1 ?
Vif A3G: 0.8%; UCH37 inh: 2.1; RanGTP-Impb inh: 0.3; Ecoli growth: 0.701; HNF4A DNA FP: -2.5

Results for O=C1c2ccccc2-c2onc3ccc(NCc4ccco4)c1c23 ?
Vif A3G: -13.5%; UCH37 inh: 1.1; RanGTP-Impb inh: -277.7; Ecoli growth: 0.694; HNF4A DNA FP: -42.5

(listing goes on)
How did Cc1ccc(-c2cc(C(=O)NCCCN3CCOCC3)c3ccccc3n2)cc1C do in these assays?
UCH37 inh: -228.2; RanGTP-Impb inh: -1.0; Ecoli growth: 0.695; HNF4A DNA FP: 1.2; FGF22 binding: inactive; MLL AF4-AF9 inh: 3.9

What do the screens show for `S=c1[nH]cc(-c2ccccc2)[nH]1`?
UCH37 inh: -1.1; RanGTP-Impb inh: 4.8; Ecoli growth: 0.644; HNF4A DNA FP: -1.6; FGF22 binding: inactive; MLL AF4-AF9 inh: -40.8

What do the screens show for `N#C/C(=C\c1ccccc1)C(=O)NC(=O)Oc1ccccc1`?
Vif A3G: 3.1%; UCH37 inh: -2.7; RanGTP-Impb inh: -0.3; Ecoli growth: 0.634; HNF4A DNA FP: 2.6; FGF22 binding: inactive; MLL AF4-AF9 inh: 8.3

How did CC1CN(C(=O)CSc2nc(-c3ccc(F)cc3)cs2)CC(C)O1 (stereo unspecified) do in these assays?
Vif A3G: 1.8%; UCH37 inh: -4.3; RanGTP-Impb inh: 2.2; Ecoli growth: 0.775; HNF4A DNA FP: -0.2

How did COc1ccc(CN2C(=O)C(CC(=O)NCc3ccco3)CC(C(=O)N(C)C)=C2C)cc1 (stereo unspecified) do in these assays?
Vif A3G: -0.8%; HNF4A DNA FP: -1.6; FGF22 binding: inactive; MLL AF4-AF9 inh: 0.2

What do the screens show for `FC(F)(F)c1ccnc(Oc2ccc(C3=NCCS3)cc2)c1`?
Vif A3G: 8.0%; UCH37 inh: 6.9; RanGTP-Impb inh: -4.8; Ecoli growth: 0.671; HNF4A DNA FP: 0.4; FGF22 binding: inactive; MLL AF4-AF9 inh: -3.4

What do the screens show for `COc1ccc(-c2noc(CCC(=O)NCCCN3CCC(C)CC3)n2)cc1`?
Vif A3G: -3.7%; UCH37 inh: 1.5; RanGTP-Impb inh: -0.9; Ecoli growth: 0.777; HNF4A DNA FP: -0.9

Results for CCc1nc2c(OCc3ccc(F)cc3)cccn2c1N(C)C(=O)c1ccc(C)cc1 ?
HNF4A DNA FP: -2.1; FGF22 binding: inactive; MLL AF4-AF9 inh: 3.5

How did COC(=O)c1ccc(N2CCN(C)CC2)c(NC(=O)c2cccnc2)c1 do in these assays?
Vif A3G: 19.2%; UCH37 inh: 3.8; RanGTP-Impb inh: -2.9; Ecoli growth: 0.71; HNF4A DNA FP: 1.2; FGF22 binding: inactive; MLL AF4-AF9 inh: -2.9

What do the screens show for `O=C(CCNS(=O)(=O)c1ccc(Br)cc1)NNC(=O)C1COc2ccccc2O1` (stereo unspecified)?
Vif A3G: 18.8%; UCH37 inh: -0.3; Ecoli growth: 0.633; HNF4A DNA FP: -3.5; FGF22 binding: inactive; MLL AF4-AF9 inh: 2.9

How did COc1ccc(C2=NS(=O)(=O)N(C)C(C(=O)Nc3ccc(F)cc3F)=C2)cc1 do in these assays?
UCH37 inh: 3.7; RanGTP-Impb inh: 2.9; Ecoli growth: 0.762; HNF4A DNA FP: -2.5; FGF22 binding: inactive; MLL AF4-AF9 inh: -4.9

Results for O=C(NNc1cccc(Cl)n1)Nc1cccc(C(F)(F)F)c1 ?
Vif A3G: 2.4%; UCH37 inh: 1.0; RanGTP-Impb inh: -2.8; Ecoli growth: 0.606; HNF4A DNA FP: 0.2; FGF22 binding: inactive; MLL AF4-AF9 inh: 0.7

How did COC(=O)C1=C(C)NC(C)=C(C(=O)OC)C1C(=O)OCC(=O)c1ccc(F)cc1 do in these assays?
Vif A3G: -4.1%; UCH37 inh: -14.8; RanGTP-Impb inh: 5.9; Ecoli growth: 0.691; HNF4A DNA FP: 0.2; FGF22 binding: inactive; MLL AF4-AF9 inh: -0.8

Results for CCCOc1c(Br)cc(C(=O)OCC(=O)NC(=O)c2cccn2C)cc1OC ?
Vif A3G: inconclusive; UCH37 inh: 3.4; Ecoli growth: 0.74; HNF4A DNA FP: -0.4; FGF22 binding: inactive; MLL AF4-AF9 inh: -0.6

What do the screens show for `COc1ccc(/C=N/NC(=O)c2ccncc2)cc1CSc1nc2ccccc2s1`?
Vif A3G: -10.6%; RanGTP-Impb inh: inconclusive; HNF4A DNA FP: 4.2

Results for COc1ccc(C(CNC(=O)c2cccc(S(=O)(=O)N3CCOCC3)c2)N2CCCC2)cc1 (stereo unspecified) ?
Vif A3G: -12.1%; UCH37 inh: -0.2; Ecoli growth: 0.656; HNF4A DNA FP: 0.4; FGF22 binding: inactive; MLL AF4-AF9 inh: 1.3

How did O=C(CSc1nc2ccccc2[nH]1)N1CCN(S(=O)(=O)c2ccc(Cl)cc2)CC1 do in these assays?
Vif A3G: inconclusive; UCH37 inh: -1.6; RanGTP-Impb inh: -1.3; Ecoli growth: 0.766; HNF4A DNA FP: 1.5

What do the screens show for `Cn1c(=O)c2c(nc(Br)n2C)n(C)c1=O`?
Vif A3G: -3.1%; UCH37 inh: 2.8; RanGTP-Impb inh: -4.8; Ecoli growth: 0.756; HNF4A DNA FP: -0.8

What do the screens show for `COc1ccc(CC(=O)Nc2cc(NC(=O)Cc3ccc(OC)c(OC)c3)cc(C(=O)O)c2)cc1OC`?
Vif A3G: 10.5%; UCH37 inh: 1.4; RanGTP-Impb inh: -3.2; Ecoli growth: 0.676; HNF4A DNA FP: 5.3; FGF22 binding: inactive; MLL AF4-AF9 inh: 0.8

What do the screens show for `COc1ccc(CCNC(=S)N2CCC(C(N)=O)CC2)cc1`?
Vif A3G: -8.7%; UCH37 inh: 4.9; RanGTP-Impb inh: 5.3; Ecoli growth: 0.644; HNF4A DNA FP: 0.7; FGF22 binding: inactive; MLL AF4-AF9 inh: 0.2

How did CCCCN(C)C(=O)Cn1cnc2sc(C)c(S(=O)(=O)N3CCN(c4ccccc4OC)CC3)c2c1=O do in these assays?
UCH37 inh: 1.1; RanGTP-Impb inh: -1.1; Ecoli growth: 0.683; HNF4A DNA FP: -0.5; FGF22 binding: inactive; MLL AF4-AF9 inh: 3.7

How did COc1ccccc1/C=C/C=N/N1CCN(c2ccccn2)CC1 do in these assays?
Vif A3G: 2.1%; RanGTP-Impb inh: -0.7; HNF4A DNA FP: -0.4

How did COc1ccc(-c2nn(-c3ccccc3)cc2C(=O)Nc2ccc(C(=O)O)cc2)cc1 do in these assays?
UCH37 inh: 8.1; RanGTP-Impb inh: -1.1; Ecoli growth: 0.668; HNF4A DNA FP: -2.0; FGF22 binding: inactive; MLL AF4-AF9 inh: 1.3

Results for COCC(C)NC(=O)c1ccc(CN2CCc3ccccc3C2)cc1 (stereo unspecified) ?
UCH37 inh: 1.4; RanGTP-Impb inh: 2.2; Ecoli growth: 0.669; HNF4A DNA FP: -3.5; FGF22 binding: inactive; MLL AF4-AF9 inh: -3.4

How did CCN(CC)S(=O)(=O)c1ccc(OC)c(NC(=S)Nc2cccc(C)c2)c1 do in these assays?
Vif A3G: 2.3%; UCH37 inh: -1.0; RanGTP-Impb inh: -0.3; Ecoli growth: 0.682

How did NS(=O)(=O)c1ccc(NCc2ccccc2OCc2ccccc2F)cc1 do in these assays?
Vif A3G: 1.0%; UCH37 inh: 6.9; RanGTP-Impb inh: 4.2; Ecoli growth: 0.655; HNF4A DNA FP: -1.6; FGF22 binding: inactive; MLL AF4-AF9 inh: 5.8

What do the screens show for `COC(=O)c1sccc1NC(=O)c1cc(C)on1`?
Vif A3G: -4.6%; UCH37 inh: -4.1; RanGTP-Impb inh: 1.3; Ecoli growth: 0.69; HNF4A DNA FP: 0.5; FGF22 binding: inactive; MLL AF4-AF9 inh: -1.8

How did COc1ccc(C(=O)NCCSc2ccccc2)cc1 do in these assays?
UCH37 inh: 4.8; RanGTP-Impb inh: -0.8; Ecoli growth: 0.683; HNF4A DNA FP: 1.9
